rRNA inh HTS – inhibits bacterial ribosomal RNA function over humanized ribosomes; AID 720706; E. coli WT GFP vs humanized-ribosome RFP mutants, fluorescence, 24 h; stronger effect = lower value; DMSO median 0, no signal -100; GFP signal change (wild-type ribosome), % (no concentration beside the values); actives 1.6% (n = 350,000);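 active = significant combined selectivity score with lowered wild-type GFP, culture density cut under 30%, mutant RFP and density less affected; inactive = any of these conditions unmet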; note: one replicate is shown; some compounds called inactive have numbers as strong as hits
FGF22 binding – FGF22 (human) thermal shift binding; Q9HCT0; recombinant FGF22 thermal shift, SYPRO orange fluorescence; percent of sucrose octasulfate shift, DMSO zero; calls only at 9.99 µM; actives 1.5% (n = 340,000);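 active = melting point raised past a set limit in the mean and every replicate; three in four hits are not shown here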
Target sequence (Q9HCT0 whole entry, looked up): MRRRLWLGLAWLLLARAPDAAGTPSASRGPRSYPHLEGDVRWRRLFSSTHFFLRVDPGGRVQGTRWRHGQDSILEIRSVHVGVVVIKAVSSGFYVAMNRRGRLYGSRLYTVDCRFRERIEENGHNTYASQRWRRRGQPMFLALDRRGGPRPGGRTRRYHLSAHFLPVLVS
rRNA inh HTS OD600 – second read-out of rRNA inh HTS, no call of its own (marks repeat the call); OD600 change, %; measured here: OD600 growth;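 optical density of the mix in the first replicate; 0 = DMSO median and -100 = no signal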
rRNA inh HTS RFP – further read-out of rRNA inh HTS, marked with its call; RFP signal change, %; measured here: RFP humanized mutant strains;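 first replicate; 0 = DMSO median and -100 = no signal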
* = called active by the depositor; i = inactive. A portion of the library; the hit share may differ from the screen's.

#1 O=C(NCC[C@H]1CC[C@H](NC(=O)c2ccccc2F)[C@H](CO)O1)c1cnccn1
#2 CO[C@H](CN(C)Cc1cc(F)ccc1F)[C@H](C)CN(C(=O)Nc1ccc(C(F)(F)F)cc1)[C@H](C)CO
#3 C[C@H]1CN([C@@H](C)CO)C(=O)CCCn2cc(nn2)CO[C@@H]1CN(C)CC1CCCC1
#4 O=C(NCC1CC1)[C@@H]1[C@@H](CO)[C@@H]2Cn3c(ccc(C4=CCCC4)c3=O)[C@@H]2N1Cc1ccccc1F
#5 O=C(c1cccnc1)N1C[C@@H]2[C@H](c3ccccc31)[C@H](CO)N2C(=O)Nc1ccccc1Cl
#6 CC(C)NC(=O)Nc1ccc2c(c1)C(=O)N([C@H](C)CO)C[C@H](C)[C@@H](CN(C)Cc1ccc(Cl)c(Cl)c1)OCCCC[C@H](C)O2
#7 COc1ccc(NC(=O)Nc2ccc3c(c2)C(=O)N([C@H](C)CO)C[C@H](C)[C@H](CN(C)C(=O)CCCN(C)C)OCCCC[C@H](C)O3)cc1
#8 O=C(O)C[C@@H]1C[C@H]2c3cc(NC(=O)NC4CCCCC4)ccc3O[C@H]2[C@@H](CO)O1

assay / compound	1	2	3	4	5	6	7	8
rRNA inh HTS	2.4	-57.9	5.0	-6.0	2.4	-0.1	5.1	5.5
rRNA inh HTS OD600	5.7	-75.8	7.3	-11.3	-2.3	-28.9	3.3	1.4
rRNA inh HTS RFP	-0.2	-8.8	-1.1	9.3	0.1	8.9	-0.6	-1.4
FGF22 binding	i	i	i	i	i	i	i	i

#9 CC(C)c1cn(CC[C@@H]2CC[C@@H](NC(=O)c3cccc(F)c3)[C@@H](CO)O2)nn1
#10 CN1CCN(C(=O)C[C@H]2CC[C@H]3[C@@H](COc4ccc(NC(=O)c5cscn5)cc4C(=O)N3C)O2)CC1
#11 CCCC(=O)Nc1ccc2c(c1)C(=O)N(C)C[C@H](OC)[C@@H](C)CN(C(=O)c1ccccn1)[C@H](C)CO2
#12 O=C(C[C@@H]1C[C@@H]2c3cc(NC(=O)c4ccc5c(c4)OCO5)ccc3O[C@@H]2[C@H](CO)O1)NCc1ccccn1
#13 Cc1noc(C)c1NC(=O)N(C)C[C@@H]1OCCCC[C@H](C)Oc2ccc(NC(=O)c3ccncc3)cc2C(=O)N([C@@H](C)CO)C[C@H]1C
#14 C[C@@H]1CN([C@H](C)CO)C(=O)c2cc(C#Cc3ccncc3)cnc2O[C@H]1CN(C)S(=O)(=O)c1ccccc1F
#15 C[C@H]1CN([C@@H](C)CO)C(=O)Cc2cc(NC(=O)Nc3ccc(F)cc3)ccc2O[C@@H]1CN(C)S(=O)(=O)c1ccc(Cl)cc1
#16 CC(=O)N1[C@H](CO)[C@@H](c2ccccc2)[C@@H]1CN(CC(C)C)C(=O)c1ccccn1

assay / compound	9	10	11	12	13	14	15	16
rRNA inh HTS	4.5	0.7	2.6	-1.3	1.7	-3.6	-1.7	2.1
rRNA inh HTS OD600	5.2	0.5	20.0	1.0	6.8	-0.3	2.3	4.4
rRNA inh HTS RFP	-0.6	-2.0	0.5	-2.9	-3.3	1.2	6.5	0.6
FGF22 binding	i	i	i	i	i	i	i	i

#17 C[C@H](CO)N1C[C@H](C)[C@@H](CN(C)C(=O)Nc2cccc3ccccc23)Oc2ccc(NC(=O)NC3CCCCC3)cc2C1=O
#18 CCC(=O)N1C[C@@H](C)[C@H](OC)CN(C)C(=O)c2ccc(NC(=O)C3CC3)cc2OC[C@@H]1C
#19 C[C@@H]1CN([C@@H](C)CO)C(=O)c2cccc(NC(=O)c3ccncc3)c2O[C@@H]1CN(C)CC1CCCCC1
#20 Cc1noc(C)c1NC(=O)Nc1cccc2c1O[C@@H](CN(C)Cc1ccc(C(=O)O)cc1)[C@H](C)CN([C@H](C)CO)C2=O
#21 C[C@@H]1CN([C@@H](C)CO)S(=O)(=O)c2ccc(-c3ccc(F)cc3)cc2O[C@H]1CN(C)C(=O)C1CCOCC1
#22 CN(C)CC(=O)N[C@H]1CC[C@H](CCn2cc(CN(C)C)nn2)O[C@@H]1CO
#23 C[C@@H]1CN([C@@H](C)CO)C(=O)Cc2cc(NS(=O)(=O)c3cn(C)cn3)ccc2O[C@H]1CN(C)Cc1ccc(Oc2ccccc2)cc1
#24 COc1ccc2c3c(n(C)c2c1)[C@H](CO)N(C)CC31CCN(C(=O)c2ccc3c(c2)OCO3)CC1

assay / compound	17	18	19	20	21	22	23	24
rRNA inh HTS	-4.0	1.8	-1.4	0.1	-3.8	1.9	-31.0	3.4
rRNA inh HTS OD600	-8.1	2.0	-1.0	3.9	-9.7	-2.5	-69.1	3.0
rRNA inh HTS RFP	1.8	0.5	-1.5	-1.5	0.4	-1.5	11.1	0.7
FGF22 binding	i	i	i	i	i	i	i	i

A draw from above in order of length of the SMILES, falling.
#23 C[C@@H]1CN([C@@H](C)CO)C(=O)Cc2cc(NS(=O)(=O)c3cn(C)cn3)ccc2O[C@H]1CN(C)Cc1ccc(Oc2ccccc2)cc1
#17 C[C@H](CO)N1C[C@H](C)[C@@H](CN(C)C(=O)Nc2cccc3ccccc23)Oc2ccc(NC(=O)NC3CCCCC3)cc2C1=O
#18 CCC(=O)N1C[C@@H](C)[C@H](OC)CN(C)C(=O)c2ccc(NC(=O)C3CC3)cc2OC[C@@H]1C

assay / compound	23	17	18
rRNA inh HTS	-31.0	-4.0	1.8
rRNA inh HTS OD600	-69.1	-8.1	2.0
rRNA inh HTS RFP	11.1	1.8	0.5
FGF22 binding	i	i	i

Continuation.
#25 CCCCc1c(-c2ccccc2OC)ncn1Cc1ccccc1Cl
#26 C[C@H](CO)N1C[C@H](C)[C@H](CN(C)Cc2ccncc2)Oc2ccc(NC(=O)Cn3cnnn3)cc2CC1=O
#27 C[C@@H]1CCCCO[C@H](CN(C)C(=O)c2ccccc2)[C@@H](C)CN([C@H](C)CO)C(=O)c2cc(NC(=O)Nc3ccc(F)cc3)ccc2O1
#28 CC(C)NC(=O)N(C)C[C@@H]1OCCCC[C@@H](C)Oc2ccc(NC(=O)c3ccncc3)cc2C(=O)N([C@@H](C)CO)C[C@H]1C
#29 CCNC(=O)C[C@@H]1CC[C@@H]2[C@H](COc3ccc(NC(=O)c4cc(C)on4)cc3C(=O)N2C)O1
#30 Cc1noc(C)c1S(=O)(=O)Nc1ccc2c(c1)CC(=O)N([C@H](C)CO)C[C@@H](C)[C@@H](CN(C)S(=O)(=O)c1ccc(Cl)cc1)O2
#31 CCN(C[C@H]1[C@H](c2ccccc2)[C@H](CO)N1C(C)=O)C(=O)c1ccccn1
#32 COc1ccc(NC(=O)N[C@H]2C=C[C@@H](CC(=O)NCc3ccccn3)O[C@H]2CO)cc1

assay / compound	25	26	27	28	29	30	31	32
rRNA inh HTS	-51.7	1.6	-4.4	2.2	2.2	-3.0	1.8	5.0
rRNA inh HTS OD600	-77.8	9.3	-5.6	4.4	-0.2	-7.1	5.9	8.4
rRNA inh HTS RFP	-13.6	-3.4	0.1	-1.5	-1.4	1.0	-4.8	-1.6
FGF22 binding	i	i	i	i	i	i	i	i

Results in FGF22 binding and rRNA inh HTS OD600, for some of the entries so far:
No.	SMILES	FGF22 binding	rRNA inh HTS OD600
28	CC(C)NC(=O)N(C)C[C@@H]1OCCCC[C@@H](C)Oc2ccc(NC(=O)c3ccncc3)cc2C(=O)N([C@@H](C)CO)C[C@H]1C	i	4.4
29	CCNC(=O)C[C@@H]1CC[C@@H]2[C@H](COc3ccc(NC(=O)c4cc(C)on4)cc3C(=O)N2C)O1	i	-0.2
30	Cc1noc(C)c1S(=O)(=O)Nc1ccc2c(c1)CC(=O)N([C@H](C)CO)C[C@@H](C)[C@@H](CN(C)S(=O)(=O)c1ccc(Cl)cc1)O2	i	-7.1
31	CCN(C[C@H]1[C@H](c2ccccc2)[C@H](CO)N1C(C)=O)C(=O)c1ccccn1	i	5.9
32	COc1ccc(NC(=O)N[C@H]2C=C[C@@H](CC(=O)NCc3ccccn3)O[C@H]2CO)cc1	i	8.4

The list continues:
#33 C[C@@H]1CN([C@@H](C)CO)C(=O)Cc2cc(NC(=O)c3ccncc3)ccc2O[C@H]1CN(C)C(=O)Nc1cccc2ccccc12
#34 C[C@@H]1CN([C@H](C)CO)S(=O)(=O)c2ccc(Br)cc2O[C@@H]1CN(C)Cc1cncnc1
#35 O=C(c1ccccc1)N1CC[C@@H]2[C@@H](CO)Nc3ccc(-c4ccc(F)cc4)cc3[C@@H]21
#36 N#C[C@@H]1[C@@H](c2ccccc2)[C@H](CO)N1C(=O)c1ccccc1F
#37 C[C@@H]1CN([C@H](C)CO)S(=O)(=O)c2ccc(/C=C/c3ccccc3)cc2O[C@@H]1CN(C)C(=O)Nc1cccc(F)c1
#38 C[C@@H]1CN([C@@H](C)CO)C(=O)c2cc(NC(=O)Nc3ccc4c(c3)OCO4)ccc2O[C@@H]1CN(C)Cc1ccc(Oc2ccccc2)cc1
#39 COc1ccc(CN(C)C[C@@H]2Oc3ccc(NC(=O)Cc4ccccc4)cc3CC(=O)N([C@H](C)CO)C[C@@H]2C)cc1
#40 CC(=O)Nc1ccc2c(c1)C(=O)N(C)[C@@H]1CC[C@@H](CC(=O)NCc3ccccc3Cl)O[C@@H]1CO2

assay / compound	33	34	35	36	37	38	39	40
rRNA inh HTS	2.7	-2.2	-39.5	1.1	-1.4	-5.3	-4.5	4.0
rRNA inh HTS OD600	-12.2	-3.7	-65.2	0.9	2.0	-8.7	-14.0	7.5
rRNA inh HTS RFP	5.1	-2.7	-3.4	-3.4	-1.0	10.8	-0.4	1.6
FGF22 binding	i	i	i	i	i	i	i	i

Laid out differently: results already given
#40 CC(=O)Nc1ccc2c(c1)C(=O)N(C)[C@@H]1CC[C@@H](CC(=O)NCc3ccccc3Cl)O[C@@H]1CO2
  rRNA inh HTS = 4.0
  rRNA inh HTS OD600 = 7.5
  rRNA inh HTS RFP = 1.6
  FGF22 binding = i

#35 O=C(c1ccccc1)N1CC[C@@H]2[C@@H](CO)Nc3ccc(-c4ccc(F)cc4)cc3[C@@H]21
  rRNA inh HTS = -39.5
  rRNA inh HTS OD600 = -65.2
  rRNA inh HTS RFP = -3.4
  FGF22 binding = i

#39 COc1ccc(CN(C)C[C@@H]2Oc3ccc(NC(=O)Cc4ccccc4)cc3CC(=O)N([C@H](C)CO)C[C@@H]2C)cc1
  rRNA inh HTS = -4.5
  rRNA inh HTS OD600 = -14.0
  rRNA inh HTS RFP = -0.4
  FGF22 binding = i

#36 N#C[C@@H]1[C@@H](c2ccccc2)[C@H](CO)N1C(=O)c1ccccc1F
  rRNA inh HTS = 1.1
  rRNA inh HTS OD600 = 0.9
  rRNA inh HTS RFP = -3.4
  FGF22 binding = i
